Bst PK mod: Pyruvate Kinase | partly purified Bacillus stearothermophilus pyruvate kinase, luminescence ATP production; ribose 5-phosphate activator present at AC10 | Potency, µM | hit rate 1.2% among 51,000 | AID 361, 2006; in the data active means potency below about 11 µM; inconclusive means mostly about 12 µM to 25 µM; inactive means weaker than that;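 the screen sought inhibitors and activators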;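 further: potency means the concentration at half of the fitted maximal effect; scaled between full activation by ribose 5 phosphate and full inhibition by luteolin; about four in five hits inhibit and the cells do not say which; series up to 57 µM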
YjeE inh: qHTS Assay for Inhibitors of YjeE. tRNA threonylcarbamoyladenosine biosynthesis protein TsaE (Escherichia coli (strain …. purified YjeE, fluorescence polarisation of a bound ADP probe. Potency, µM. hit rate 0.05% among 71,000. AID 605, 2007; active = well fitted falling curve; inconclusive = weaker or top-dose-only fall, or a rising curve; inactive = flat or poorly fitted curve;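 further: top concentration of the series not given in the record; excess ADP was the control for the full effect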
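Purified YjeE (10 uM) with BODIPY Texas Red-labeled ADP probe (2 uM); compounds pin-transferred, 15 min at room temperature. Binding inhibition read as decreased fluorescence polarization; ADP titration as control.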
* marks the source's active call; other numbers are inactive results; i = inactive; nt = not tested or not shown. Not all compounds are listed; count on the stated rates, not on these rows.

SMILES | Bst PK mod | YjeE inh
O=C(CCSc1nc(-c2ccco2)cc(C(F)(F)F)n1)NCCc1ccccc1 | >57 | i
Cc1cc(N(C(=O)c2ccco2)C(C(=O)NC2CCCCC2)c2ccccc2)ccc1-n1cnnn1 (stereo not given) | >57 | i
O=C(O)CCCc1nc2ccccc2s1 | >57 | i
Cc1ccc(Cn2c(=O)c3ccccc3n3c(CCC(=O)O)nnc23)cc1 | nt | i
COc1ccc(CNC(=O)CN(C(=O)c2ccc(CN3CCOCC3)o2)C2CCCC2)cc1 | >57 | i
CC(=O)N1CCc2cc(S(=O)(=O)NC(C(=O)Nc3nc(C)cs3)C(C)C)ccc21 (stereo not given) | >57 | i
CCN(CC)c1ccc2cc(-c3nc4ccccc4n3C)c(=O)oc2c1 | nt | i
O=C(Nc1cccc2ccccc12)c1ccc(Br)o1 | nt | i
Cc1cccc(NC(=O)CN(C)S(=O)(=O)c2ccccc2)n1 | >57 | i
COc1ccc(OC)c(S(=O)(=O)Nc2ccccc2C)c1 | >57 | i
C[Si](C)(C)C#Cc1ccccc1NC(=S)Nc1ccccc1 | nt | i
CCN(CC)C(=O)CN1C(=O)C2(OCC(C)(c3ccccc3)CO2)c2ccccc21 (stereo not given) | >57 | i
N#C/C(=C\c1cccs1)Sc1nc2ccccc2s1 | nt | i
COc1ccc(S(=O)(=O)N2CCCCC2C(=O)O)cc1OC (stereo not given) | >57 | i
CCc1nc(N2CCN(C(=O)c3ccco3)CC2)c2oc3ccccc3c2n1 | nt | i
CC1CC(C)CN(S(=O)(=O)c2ccc(C(=O)N3CCN(c4ccccc4)CC3)cc2)C1 (stereo not given) | >57 | i
O=C(CN(c1ccc(F)cc1)S(=O)(=O)c1ccccc1)NCc1ccco1 | >57 | i
CCCCS(=O)(=O)C(=C1Nc2ccccc2N1)S(=O)(=O)CCCC | >57 | i
CCOc1ccc(-n2c(SCC(N)=O)nc3c(c2=O)SCC3)cc1 | >57 | i
O=C(Nc1nnc(-c2ccccc2)s1)c1ccc(Cl)c(S(=O)(=O)N2CCOCC2)c1 | nt | i
CC1=Nn2c(nnc2C2CCCCC2)SC1 | >57 | i
COC(=O)N1CCC2(CCN(Cc3cc(C(F)(F)F)cc(C(F)(F)F)c3)CC2)CC1 | nt | i
O=S1(=O)CC(NCc2ccccc2)C(Nc2ccc(Cl)cc2)C1 (stereo not given) | >57 | i
O=C1c2ccccc2C(=O)N1CCCCSc1nnnn1-c1ccccc1 | >57 | i
COC(=O)c1[nH]c2ccccc2c1NC(=O)CN1CCN(c2cccc(Cl)c2)CC1 | >57 | i

3 compounds from above, arranged by molecular weight, rising.
SMILES | Bst PK mod | YjeE inh
O=C(Nc1cccc2ccccc12)c1ccc(Br)o1 | nt | i
C[Si](C)(C)C#Cc1ccccc1NC(=S)Nc1ccccc1 | nt | i
O=S1(=O)CC(NCc2ccccc2)C(Nc2ccc(Cl)cc2)C1 (stereo not given) | >57 | i

Back to the main list, starting 5 compounds before the break.
SMILES | Bst PK mod | YjeE inh
CC1=Nn2c(nnc2C2CCCCC2)SC1 | >57 | i
COC(=O)N1CCC2(CCN(Cc3cc(C(F)(F)F)cc(C(F)(F)F)c3)CC2)CC1 | nt | i
O=S1(=O)CC(NCc2ccccc2)C(Nc2ccc(Cl)cc2)C1 (stereo not given) | >57 | i
O=C1c2ccccc2C(=O)N1CCCCSc1nnnn1-c1ccccc1 | >57 | i
COC(=O)c1[nH]c2ccccc2c1NC(=O)CN1CCN(c2cccc(Cl)c2)CC1 | >57 | i
Cc1ccccc1OCC(=O)N(Cc1ccc(N(C)C)cc1)C1CCS(=O)(=O)C1 (stereo not given) | >57 | i
O=C(c1ccc2c(c1)OCO2)N(c1ccc(F)cc1)C1C=CS(=O)(=O)C1 (stereo not given) | >57 | i
CCN1C(=O)/C(=C2\SC(=S)N(CCCOC)C2=O)c2ccccc21 | >57 | i
Cc1ccc(NCc2nnc(SCCN3CCCCC3)n2CC2CCCO2)c(C)c1 (stereo not given) | >57 | i
COCCNC(=O)[C@@]1(Cc2ccccc2)C=C[C@@H](C)N1C(=O)OC | nt | i
CCOc1ccc(NC(=O)CCNS(=O)(=O)c2ccc3c(c2)c(=O)n(C)c(=O)n3C)cc1 | >57 | i
Cn1c(=O)c2c(ncn2CCN(CCO)Cc2ccccc2)n(C)c1=O | >57 | i
COCc1[nH]nc2c1C(c1ccc(OC)c(OC)c1)C(C#N)=C(N)O2 (stereo not given) | >57 | i
Cn1c(=O)c2c(nc(Br)n2CCSc2nnnn2-c2ccccc2)n(C)c1=O | >57 | i
COc1cc2c3cc1Oc1c(OC)c(OC)cc4c1[C@@H](Cc1ccc(O)c(c1)Oc1ccc(cc1)C[C@@H]3N(C)CC2)N(C)CC4 | nt | i
COc1ccc(S(=O)(=O)N2CN(Cc3ccco3)c3nc4ccccc4nc32)cc1 | >57 | i
Cc1ccnc(NC(=O)c2ccc(NC(=O)c3ccco3)cc2)c1 | nt | i
O=C(NCc1ccccc1)[C@@H]1C[C@H]1[C@@H](NP(=O)(c1ccccc1)c1ccccc1)c1ccccc1 | nt | i
COc1ccccc1N1CCN(C(=O)CN(Cc2ccccc2)S(C)(=O)=O)CC1 | >57 | i
CCOC(=O)N1CCN(c2c(-c3ccc(C)cc3)c(=O)c2=O)CC1 | >57 | i
Cn1c(=O)c2c(nc(OCc3ccccc3)n2C)n(C)c1=O | nt | i
CC(=O)NC(C(=O)NCC(N)=O)C(C)C (stereo not given) | >57 | i
O=C(CN1C(=O)CSc2ccccc21)Nc1ccccc1C(=O)N1CCOCC1 | >57 | i
CCOc1ccc(CCNC(=O)C2CCCN(C(=O)N(C)C)C2)cc1OCC (stereo not given) | >57 | i
COC(=O)[C@@]1(Cc2ccc(OC)cc2)[C@H]2c3cc(C(=O)N4CCCC4)n(CCc4ccccn4)c3C[C@H]2CN1C(=O)c1ccccc1 | nt | i
O=C(O)c1ccc2c(c1)ncn2C1CCCCCC1 | >57 | i
c1coc(-c2nnc(-c3cccs3)o2)c1 | nt | i
O=c1c2c3nc4ccccc4nc3n(CCN3CCOCC3)c2ncn1CCN1CCOCC1 | >57 | i
COC(=O)c1cc2sccc2n1CC(=O)N1CCCc2ccccc21 | >11.4 | i
O=C1CNC(=O)c2c(nc3n2CCC3)N1 | >57 | i
The list goes on:
SMILES | Bst PK mod | YjeE inh
CC(C)=CCNc1ncnc2nc[nH]c12 | nt | i
CC1=C(C)CS(=O)N(c2ccc(S(N)(=O)=O)cc2)C1 (stereo not given) | >57 | i
O=C(CSc1ccccc1)Nc1cccnc1 | >57 | i
COC(=O)CSc1nnc(-c2cccnc2)n1-c1cccc(OC)c1 | >57 | i
Cc1c(Cl)cccc1NC(=O)CSCc1cc(=O)[nH][nH]1 | >57 | i
Cc1ccc(S(=O)(=O)C(C#N)c2nc3ccccc3nc2N2CCCC2)cc1C (stereo not given) | >57 | i
CCn1c(COc2ccc(C)cc2)nnc1SCC(=O)C(C)(C)C | >57 | i
CCCN(CCC)C(=O)SCC | nt | i
O=[N+]([O-])c1ccc(S(=O)(=O)Cc2ccccc2)c([N+](=O)[O-])c1 | nt | i
CN(Cc1nc2ccccc2n1C)S(C)(=O)=O | >57 | i
O=C(c1ccc(Cl)cc1)C1CCN(C(=O)NC2CCCCC2)CC1 | >57 | i
CC(C)(C)NC(=O)COC(=O)c1ccc(S(=O)(=O)N2CCCCCC2)cc1 | >57 | i
CCn1c(SCC(=O)c2cc(C)n(CC3CCCO3)c2C)nc2ccccc21 (stereo not given) | nt | i
O=C(COc1ncnc2ccccc12)c1ccc2c(c1)OCCO2 | nt | i
Cn1cnnc1SCC(=O)n1c2ccccc2c2ccccc21 | nt | i
Cc1ccc(-n2[nH]c(C)c(C=Nc3ccc(C)cn3)c2=O)cc1 | >57 | i
COc1ccccc1CN1CC[C@@]2(CCCN(S(C)(=O)=O)C2)C1 | nt | i
CC(C)Oc1ccc(C2C(C(=O)c3ccco3)=C(O)C(=O)N2CCCN(C)C)cc1 (stereo not given) | >57 | i
O=C(CN1CCN(c2ccccc2)CC1)Nc1cccc(C(F)(F)F)c1 | >57 | i
O=C(O)c1cccc(Nc2nc(N3CCOCC3)nc(N3CCOCC3)n2)c1 | >57 | i
CCNc1ncc2nc(-c3cn(C)c4ccccc34)c(=O)n(Cc3ccc(F)cc3)c2n1 | nt | i
Cc1ccc(C(=O)Cn2c3c(sc2=N)CCCC3)cc1 | nt | i
CC(c1ccccc1)C(CC(=O)O)C(=O)NC1CCCCC1 (stereo not given) | nt | i
O=C1c2ccccc2-c2onc3ccc(NCc4ccco4)c1c23 | 5.26* | nt
Clc1ccc(-c2nn3c(-c4ccccn4)nnc3s2)c(Cl)c1 | >57 | i
(more compounds)
SMILES | Bst PK mod | YjeE inh
Cc1ccc2c(c1)CC1(CN2C)C(=O)OC2(CCCCC2)OC1=O | >57 | i
CC1=C(C(=O)Nc2ccccc2)C(c2ccco2)C(C#N)=C(SCC(=O)Nc2cccc(C)c2C)N1 (stereo not given) | >57 | i
Cc1ccc(-c2nn3c(C)nnc3s2)cc1NC(=O)c1cccs1 | nt | i
Cn1cc(C2NC(=O)c3c(sc4c3CCCC4)N2)c2ccccc21 (stereo not given) | nt | i
CCc1c(C)nc2c(C#N)c[nH]n2c1=O | >57 | i
Cc1cccc(C)c1OCCCCc1c(C)n[nH]c1C | >57 | i
O=C(NCc1cccs1)C(NS(=O)(=O)c1cccc2nsnc12)c1ccccc1 (stereo not given) | >57 | i
COc1ccc(OC)c(NC(=O)CCNS(=O)(=O)c2cccs2)c1 | >57 | i
Clc1ccc2c(c1)C1OCCC1C(c1ccco1)N2 (stereo not given) | 9.64* | i
CN(C)S(=O)(=O)N1CCC(c2ccc(F)cc2)C(COc2ccc3c(c2)OCO3)C1 (stereo not given) | >57 | i
Cc1cccc(CC2CC(=O)N(c3ccccc3)C2=O)c1 (stereo not given) | >57 | i
CC(=O)N1CCC2(CCN(Cc3cc(C(F)(F)F)cc(C(F)(F)F)c3)CC2)CC1 | nt | i
CCCCc1cc2c(c(NC(=O)CC)n1)c(=O)oc1ccccc12 | >57 | i
COC(=O)C1=CN(CC2CCCO2)C=C(C(=O)OC)C1c1cc(OC)c(OC)c(OC)c1 (stereo not given) | >57 | i
Cc1ccc(N(C(=O)CNC(=O)c2ccco2)C(C(=O)NC2CCCC2)c2cccnc2)cc1C (stereo not given) | >57 | i
CCC(C)n1c(=O)c(C(=O)Nc2ccccc2S(N)(=O)=O)c(O)c2ccccc21 (stereo not given) | >57 | i
Cc1ccc2[nH]c(=O)c(N3CCOCC3)c(-c3ccccc3)c2c1 | >57 | i
CCCC1(C(=O)OC)NC(c2cccc(F)c2)C2C(=O)N(CC)C(=O)C21 (stereo not given) | >57 | i
CN1c2ccccc2N(C)C1c1c(O)ccc2ccccc12 | >11.4 | nt
O=c1[nH]c(CN2CCCCC2)nc2c1C1(CCCCC1)Cc1ccccc1-2 | >11.4 | nt
COc1ccc(CN2CCN(C(=O)c3ccco3)CC2)cc1OCc1ccccc1 | nt | i
COc1ccccc1CNc1nc(-c2ccc3c(c2)OCO3)nc2ccccc12 | nt | i
O=C(CC1Nc2ccccc2NC1=O)NCCCN1CCCCCC1 (stereo not given) | >57 | i
O=C(CSc1n[nH]c(=O)n1C1CC1)Nc1cc(Cl)ccc1Oc1ccccc1 | >57 | i
O=C(CSc1nnc(CNc2ccc(F)cc2)o1)N1CCN(C(=O)c2ccco2)CC1 | >57 | i
(listing goes on)
SMILES | Bst PK mod | YjeE inh
COC(=O)c1sccc1NC(=O)c1ccc(Cl)s1 | >57 | i
CC(Oc1ccc2c(-c3ccccc3)cc(=O)oc2c1)C(=O)O (stereo not given) | >57 | i
COc1ccc2[nH]c(=O)c(CN(C(=O)C3CCCO3)c3cccc(C)c3)cc2c1 (stereo not given) | >57 | i
CCCCCCCC(=O)OCC(=O)[C@@]1(O)CC[C@H]2[C@@H]3CCC4=CC(=O)CC[C@]4(C)[C@H]3[C@@H](O)C[C@@]21C | >25.6 | nt
Cc1cc(C(=O)OCC(=O)N2C(C)CCCC2C)c(C)o1 (stereo not given) | >57 | i
CCCCOc1ccc(/C(O)=C2/C(=O)C(=O)N(CCCOC)C2c2ccncc2)cc1 (stereo not given) | >57 | i
CCOC(=O)c1ccc(N2C(=O)c3n[nH]c(C)c3C2c2ccc(OC)cc2)cc1 (stereo not given) | >57 | i
O=C(c1ccco1)c1cn[nH]c1-c1ccc(Cl)cc1O | >57 | i
CN1C(=O)c2ccccc2N(C)C1c1cccs1 (stereo not given) | >57 | i
COc1ccc(Cn2c3nc4ccccc4nc3c3c(=O)n(Cc4ccco4)c(C)nc32)cc1 | >57 | i
CC1CN(C(=O)c2cc3cc(Cl)cc(Cl)c3oc2=O)CC(C)O1 (stereo not given) | >57 | i
CCOC(=O)C1=C(N)Oc2ccc(Br)cc2[C@@H]1[C@@H](C#N)C(=O)OCC | nt | i
COC(=O)c1ccc(CSc2nc3c(cnn3-c3ccc(Cl)cc3)c(=O)[nH]2)o1 | >57 | i
COC(=O)NCC(C)OC(=O)Nc1cccc(Cl)c1 (stereo not given) | >57 | i
Cc1ccc(S(=O)(=O)N2CCOCC2)cc1C(=O)N1C(=O)c2cccc(N)c2C1=O | >57 | i

A portion from the list above, as a working copy:
SMILES | Bst PK mod | YjeE inh
COC(=O)c1sccc1NC(=O)c1ccc(Cl)s1 | >57 | i
CC(Oc1ccc2c(-c3ccccc3)cc(=O)oc2c1)C(=O)O (stereo not given) | >57 | i
COc1ccc2[nH]c(=O)c(CN(C(=O)C3CCCO3)c3cccc(C)c3)cc2c1 (stereo not given) | >57 | i
CCCCCCCC(=O)OCC(=O)[C@@]1(O)CC[C@H]2[C@@H]3CCC4=CC(=O)CC[C@]4(C)[C@H]3[C@@H](O)C[C@@]21C | >25.6 | nt
Cc1cc(C(=O)OCC(=O)N2C(C)CCCC2C)c(C)o1 (stereo not given) | >57 | i

Screening data (PubChem)
